Screening results deposited in PubChem by several laboratories.
A1 inh = inhibitors of the anti-apoptotic protein A1, read as caspase activation; MEF A1-2A-BIM cells, Caspase-Glo 3/7 luminescence, 3 h; percent of clofoctol response, vehicle zero; actives 0.066% (n = 330,000); caspase activation, % (test concentration not listed); AID 2462;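 active = over half of replicate activation scores above 10%, or exactly half above 10 with the replicate mean above 10; inconclusive = replicate mean below 10 yet half the replicates above 10; inactive = over half of replicates below 10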;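 also: wells of about 30 µL received 50 nL stock; many hits fall short of the cut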
Calb FLC = affects C. albicans growth with fluconazole; actives 0.57% (n = 300,000); growth inhibition, % (concentration not given with the values); AID 1979; C. albicans CaCi-2 (fluconazole-resistant clinical isolate) + fluconazole, Alamar Blue growth, 48 h;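 active = most replicates above 75%; inconclusive = exactly half above 75%; inactive = most below 75%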;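 also: all wells also contain fluconazole at 8 µg/ml as a sub-toxic cotreatment; 0% = median of DMSO wells and 100% = median of geldanamycin control wells; wells of about 8 µL received 7.5 nL stock; the first replicate is given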
RanGTP-Imp inh = disruptors of Ran-importin-beta complex formation – biochemical, FRET, CFP-Ran, YFP-importin-beta, homogeneous, primary screen. AID 2216. actives 1.1% (n = 300,000). cell-free CFP-Ran/YFP-importin-beta FRET ratio. inhibition, % (concentration not given with the values);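 active = most replicates above 15%; inconclusive = exactly half above 15%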;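 also: 0% = DMSO wells and 100% = Ran loaded with GDP instead of GTP; wells of about 40 µL received 100 nL stock; the first replicate is given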
MLL AF4-AF9 inh = inhibitors of human MLL-AF4/AF9 interaction; inhibition, % at 10 µM; AlphaScreen, biotin-AF4 peptide binding to FLAG-AF9; AID 651704; actives 0.47% (n = 350,000); P42568;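 active = every replicate reaching a set inhibition limit, whatever the replicate mean, cut at about 25% in these data; inconclusive = mean inhibition reaches that limit but some replicates miss it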;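 also: 0% = plate neutral control median and 100% = total signal loss; the record names both 10 and 1 µM as test concentration; the first replicate is given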
Target sequence (P42568 whole entry, looked up): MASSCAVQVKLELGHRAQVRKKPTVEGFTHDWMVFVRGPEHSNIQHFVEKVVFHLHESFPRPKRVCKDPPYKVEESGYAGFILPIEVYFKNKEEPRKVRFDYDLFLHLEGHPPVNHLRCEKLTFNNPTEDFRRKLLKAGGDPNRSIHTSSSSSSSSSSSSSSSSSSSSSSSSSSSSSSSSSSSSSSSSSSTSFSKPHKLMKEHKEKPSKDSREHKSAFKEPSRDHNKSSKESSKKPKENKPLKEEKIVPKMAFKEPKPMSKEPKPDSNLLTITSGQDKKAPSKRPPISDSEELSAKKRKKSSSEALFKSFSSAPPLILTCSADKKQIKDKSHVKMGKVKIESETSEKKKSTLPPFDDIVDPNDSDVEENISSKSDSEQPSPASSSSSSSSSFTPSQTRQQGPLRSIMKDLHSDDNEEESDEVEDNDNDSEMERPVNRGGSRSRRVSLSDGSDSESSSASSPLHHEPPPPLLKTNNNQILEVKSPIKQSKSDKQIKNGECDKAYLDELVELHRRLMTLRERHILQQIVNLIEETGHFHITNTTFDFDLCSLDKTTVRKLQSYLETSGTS
T cruzi inh = T. cruzi replication inhibition | actives 1.4% (n = 300,000) | T. cruzi beta-gal in NIH3T3, luminescence, 90 h | inhibition, % (test concentration not listed) | AID 1885;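 active = mean inhibition across valid replicates above about 55%, limit read from the data; inconclusive = mean below that limit but half or more replicates reach it; inactive = mean below it, under half of replicates reach it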;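 also: signal also drops with host cell toxicity which is not excluded here; 0% = plate median of DMSO wells and 100% = zero luminescence signal; higher percent means less beta-gal luminescence so fewer parasites; stock transfer was 50 nL into about 50 µL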
Vif A3G = HIV-1 Vif–A3G interaction blockers – biochemical, TR-FRET, GST-Vif 1-94, biotin-A3G peptide, dose response retest, primary screen (AID 1117319); actives 0.57% (n = 260,000); TR-FRET GST-Vif / biotin-A3G peptide binding; higher % means a stronger effect; test concentration not given here; strong numbers were not always called active; one-dose inhibition, %; IC50 in µM for titrated hits;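 active = above the screen mean plus three standard deviations and confirmed in dose response; inconclusive = results disagree or hit not tested in dose response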;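 also: Vif residues 1-94 fused to GST binding biotinylated APOBEC3G peptide 110-148; 0% = full assay without inhibitor and 100% = GST in place of GST-Vif; retest series ran down from 100 µM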
Beta apoptosis = beta cell apoptosis inhibition. actives 0.8% (n = 300,000). protection from apoptosis, % (test concentration not listed). INS-1E cytokine-induced death, ATP luminescence, 48 h; percent of positive-control rescue, neutral wells zero;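 active = all replicates at 75% or more, or half of them and the mean; inconclusive = half reach 75% but not the mean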;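 also: 0% = cytokine-treated negative control wells and 100% = positive control rescue; higher means more ATP so stronger rescue from cytokine killing; wells of about 40 µL received 100 nL stock; the first replicate is given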
LANA-H2A inh = blocks KSHV LANA binding to histone H2A/H2B; Q9QR71; cell-free LANA-H2A/H2B peptide, fluorescence polarization; inhibition, % (concentration not given with the values); actives 0.6% (n = 320,000); AID 2629; in the data active = inhibition mostly above about 10%, no sharp cut-off; inactive = mostly below about 6.7%;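 also: stock transfer was 7.5 nL into about 10 µL; 0% = median of vehicle wells and 100% = median of positive control wells; one replicate is shown; the record names a cut of 25% in any replicate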
The depositor's hits bear a star; ? = inconclusive; · = no result given; & = joins results of further samples. Hits appear at their usual frequency (roughly 4.3% active in at least one column).

SMILES | A1 inh | Calb FLC | RanGTP-Imp inh | MLL AF4-AF9 inh | T cruzi inh | Vif A3G | Beta apoptosis | LANA-H2A inh
Cc1ccc(C(=O)COC(=O)c2cccc([N+](=O)[O-])c2)s1 | -0.1 | · | · | 5.2 | · | -2% | -6 | -2.4
CC(OC(=O)c1ccc(Cl)c(S(=O)(=O)N2CCCC2)c1)C(=O)NC1CCCCC1C (stereo not drawn) | 0.6 | -9 | 1.4 | · | 8 | · | 3 | -5.6
O=C1C[C@@H]2c3c(cccc3CN1Cc1ccc(F)cc1)C[C@@H](O)[C@H]2O | 0.1 | · | · | 1.3 | · | · | -1 | 1.1
CCCCCOc1ccc(C(=O)NC(C(=O)O)C(C)C)cc1 (stereo not drawn) | -2.1 | 40 | -4.0 | -51 | -12 | ? | -2 | -5.5
O=C(Cc1ccc(Br)cc1)Nc1ccc(S(=O)(=O)N2CCCC2)cc1 | 0.2 | -2 | ? | 0.5 | 10 | -10% | · | -1.7
COc1ccc(-c2[nH]ncc2Oc2ccccc2OC)c(O)c1 | -0.1 | 25 | -1.0 | · | -13 | 4% | -5 | -0.4
COc1ccc(-n2cnc3cc(NCc4ccco4)ccc32)cc1 | -0.9 | 6 | 23* | 19 | 3 | 8% | -2 | -18
COc1ccc(/C(C)=N/NC(=O)c2ccccc2OCc2ccccc2)c(OC)c1 | 0.2 | 4 | -0.1 | 4.5 | 24 | 4% | 17 | -1.1
CC1CC(CC(=O)Nc2nc(-c3ccccc3)cs2)C(=O)O1 (stereo not drawn) | 0.3 | 10 | 0.0 | -3.1 | 2 | -7% | 1 | 1.6
CC(C)Cc1c(O)nc(SCC(=O)N2CCCCCC2)[nH]c1=O | -0.7 | -5 | -1.0 | -4.0 | 12 | · | · | -4.6
COc1ccc(C2=NN(C(=O)CSc3nnc(C)n3C)C(c3ccco3)C2)cc1 (stereo not drawn) | -0.8 | -9 | 1.3 | 1.9 | 4 | 3% | -2 | 2.6
CN(Cc1nnc(SCC(=O)NCCc2ccccc2)n1C)S(=O)(=O)c1ccccc1 | 0.2 | -3 | 0.6 | · | 2 | ? | 7 | -2.6
CC(C)c1cc(CNC(=O)c2cc(COc3cncc(Cl)c3)on2)on1 | · | -4 | -1.5 | 1.1 | -13 | · | · | ·
COc1ccccc1N(CC(=O)NCc1cccnc1)S(C)(=O)=O | 0.1 | 9 | 5.3 | · | -2 | ? | 1 | -2.5
COc1ccccc1Oc1ccc2c(c1)C(=O)N(c1cccc(O)c1)C2=O | -1.1 | 8 | -1.6 | · | -5 | 1% | · | 3.9
Cc1ccc(C(C)C)c(OCc2ccc(C(=O)N/N=C/c3ccc(C(=O)O)cc3)cc2)c1 | 0.3 | 2 | 3.6 | -0.8 | -9 | 0% | -18 | -1.3
Cc1ccc(C)c(NC2=NC3(CCCCC3)N=C(N)N2)c1 | 0.1 | -9 | 1.4 | · | 18 | 5%&-5% | -4 | 2.3
N#CCCSc1nc(N2CCOCC2)c2c(c1C#N)CCCC2 | 0.7 | 27 | -0.4 | · | 13 | 2% | · | -4.4
COc1ccc(C(=O)Nc2ccccc2C(=O)N2CCCCCC2)cc1 | 0.6 | -38 | 2.0 | 0.2 | -1 | -3% | · | 2.9
COc1cc(-c2nc(CN(C)Cc3nnc(C)o3)c(C)o2)ccc1F | 2.0 | -39 | 2.6 | -0.3 | -15 | 9% | -3 | 3.0
Cc1ccc(CN=C2Nc3ccccc3CS2)cc1 | -5.5 | -47 | 0.2 | · | 33 | 1% | 6 | -2.5
CCOC(=O)c1c(C)n(C)c2cc([N+](=O)[O-])c(O)c([N+](=O)[O-])c12 | -0.5 | 3 | 4.0 | · | 7 | 26% | -4 | 0.7
COc1ccc(C(=O)Nc2ccc(S(=O)(=O)Nc3cnc4ccccc4n3)cc2)cc1 | 0.4 | 1 | -0.1 | -21 | 2 | · | 2 | 0.8
Cc1cc(NS(=O)(=O)c2ccc(NC(=O)C(F)(F)F)cc2)nc(C)n1 | 0.2 | -2 | 4.6 | -5.5 | 18 | · | -2 | 2.0
COc1ccc(-c2nnc(SCC(=O)N(C)C3CCS(=O)(=O)C3)n2C(C)C)cc1 (stereo not drawn) | 0.3 | · | · | -14 | · | 2% | 7 | -5.1

An excerpt from above in order of the LANA-H2A inh value, low to high.
canonical_smiles | LANA-H2A inh
CCCCCOc1ccc(C(=O)NC(C(=O)O)C(C)C)cc1 (stereo not drawn) | -5.5
N#CCCSc1nc(N2CCOCC2)c2c(c1C#N)CCCC2 | -4.4
COc1ccc(C(=O)Nc2ccccc2C(=O)N2CCCCCC2)cc1 | 2.9

(cont.)
SMILES | A1 inh | Calb FLC | RanGTP-Imp inh | MLL AF4-AF9 inh | T cruzi inh | Vif A3G | Beta apoptosis | LANA-H2A inh
COc1cc(CNc2ccc3[nH]c(=O)[nH]c3c2)ccc1OCc1ccccc1 | -3.8 | 23 | 4.9 | 2.6 | -26 | · | -4 | -1.3
COc1ccc([N+](=O)[O-])cc1N(CC(=O)NCC1CCCO1)S(C)(=O)=O (stereo not drawn) | -0.1 | 2 | -1.1 | · | -8 | -3% | -4 | 2.5
O=C(NCC1CCN(Cc2ccccc2F)CC1)Nc1cc(F)ccc1F | -0.3 | 6 | 1.4 | -3.9 | 7 | -7% | 4 | 3.6
Cc1cc(C(=O)OC(C)C(=O)Nc2nc(-c3ccccc3)cs2)c(C)o1 (stereo not drawn) | 0.2 | -8 | ? | -22 | -1 | 4% | 3 | 1.3
CC(=O)/C(N=Nc1cc2c(cc1[N+](=O)[O-])OCCO2)=C(\C)O | -0.1 | -32 | 0.2 | -14 | 2 | 1% | 0 | -0.5
CC(C)CCNC(=O)c1ccc(C2SCC(=O)N2Cc2ccco2)cc1 (stereo not drawn) | -0.3 | 0 | 5.1 | · | 0 | 1% | -1 | 2.5
CC(OC(=O)Cc1ccc(Br)cc1)C(=O)NC1CCCCC1C (stereo not drawn) | 0.4 | -9 | 2.3 | -3.3 | -9 | · | -5 | -3.4
C#CCSC1=C(C#N)C(c2cccs2)C(C(=O)OCC)=C(C)N1 (stereo not drawn) | -0.3 | 13 | 2.9 | · | 28 | 8% | 5 | 1.3
O=C(Nc1cnn(Cc2ccccc2)c1)c1nc2ncccn2n1 | 0.3 | -7 | -4.1 | · | -20 | -6% | -7 | -1.4
CC1(C)CC(NCc2cccc([N+](=O)[O-])c2)CC(C)(C)N1 | 1.2 | 5 | 1.7 | 2.2 | -13 | · | 0 | -2.8
COc1ccc(Br)cc1C(=O)N/N=C/c1ccc([N+](=O)[O-])cc1 | -0.3 | 3 | -1.0 | 0.8 | 0 | 4% | 8 | 0.2
Cc1ccc2c(c1)c1c3n2CCN=C3CCC1 | 0.5 | -45 | -8.1 | · | 2 | 7% | -7 | 3.1
CCc1noc(C)c1C(=O)Nc1nc(-c2ccc(Cl)cc2Cl)cs1 | 1.0 | 3 | -0.4 | -5.5 | -7 | -11% | 12 | 0.7
Cn1c(SCC(=O)NC(c2ccccc2)c2ccccc2)nnc1-c1cccs1 | 0.3 | -8 | 1.6 | · | -4 | 76% | -1 | 2.2
CCCOP(=O)(c1ccc(N(C)C)cc1)C(O)c1ccc(Cl)cc1Cl (stereo not drawn) | 0.0 | -10 | ? | 10 | -2 | -6% | -10 | -2.5
CCOC(=O)c1nnn(CC(=O)Nc2cccc(OC)c2)c1C(=O)OCC | -0.1 | -7 | 1.3 | · | -5 | -3% | 0 | 2.0
CCOc1ccc(OCCC(=O)OCC(=O)NNC(=O)c2ccccc2)cc1 | 0.4 | 5 | 3.1 | -8.7 | 0 | 12% | 1 | -4.8
O=C1COc2ccc(C(=O)COc3ccc([N+](=O)[O-])cc3)cc2N1 | -0.2 | 2 | -1.2 | -39 | 18 | 3% | -2 | 3.2
O=C(CCn1c(=S)[nH]c2ccccc2c1=O)Nc1ccc(F)cc1 | 0.8 | -16 | -1.3 | 0.6 | -2 | 1% | 8 | 1.3
O=C(C1CC1)N1CCc2cc(S(=O)(=O)NCC3COc4ccccc4O3)ccc21 (stereo not drawn) | -0.9 | -2 | -3.4 | · | -1 | -9% | 0 | -0.2
Cc1c(CCC(=O)NCCCn2ccnc2)c(=O)oc2c(C)c3occ(C(C)(C)C)c3cc12 | -0.1 | 8 | 3.1 | 15 | 43 | · | 33 | -13
NC(=O)CC(NC(=O)Cc1cccc2ccccc12)c1ccc(NCc2ccc(F)cc2)c([N+](=O)[O-])c1 (stereo not drawn) | 0.6 | -6 | -10 | -2.6 | -3 | · | -10 | 1.2
O=C1CC(N2CCN(c3cccc(C(F)(F)F)c3)CC2)C(=O)N1c1ccccc1 (stereo not drawn) | -0.6 | -2 | 0.4 | · | -5 | -1% | -4 | -0.3
Cc1cc(C)n2nc(CNS(=O)(=O)c3ccc(F)cc3)nc2n1 | 0.0 | -20 | -4.8 | -4.5 | -1 | · | 1 | 1.4
CC(C)c1ccc(NC2CCCN(C(=O)CSc3nncn3C)C2)cc1 (stereo not drawn) | -0.5 | -12 | -1.4 | -2.6 | -10 | · | 0 | 0.2

Brought forward from above: 3 entries, then new ones.
SMILES | A1 inh | Calb FLC | RanGTP-Imp inh | MLL AF4-AF9 inh | T cruzi inh | Vif A3G | Beta apoptosis | LANA-H2A inh
O=C1CC(N2CCN(c3cccc(C(F)(F)F)c3)CC2)C(=O)N1c1ccccc1 (stereo not drawn) | -0.6 | -2 | 0.4 | · | -5 | -1% | -4 | -0.3
Cc1cc(C)n2nc(CNS(=O)(=O)c3ccc(F)cc3)nc2n1 | 0.0 | -20 | -4.8 | -4.5 | -1 | · | 1 | 1.4
CC(C)c1ccc(NC2CCCN(C(=O)CSc3nncn3C)C2)cc1 (stereo not drawn) | -0.5 | -12 | -1.4 | -2.6 | -10 | · | 0 | 0.2
COc1c(C)oc2cc(O)ccc2c1=O | -0.5 | 18 | 4.8 | · | -15 | · | 4 | 3.8
Cn1nc(CC(=O)NC2CCCCC2)c2ccccc2c1=O | -0.3 | -4 | 3.9 | · | -15 | 1% | -3 | 6.3
CCOc1ccc(NS(=O)(=O)c2ccc(C(=O)NC3CCN(Cc4ccccc4)CC3)cc2)cc1 | 0.5 | -6 | · | -0.2 | ? | · | 12 | -3.7
CCCSc1cc(NCCOC(C)=O)c([N+](=O)[O-])c2nonc12 | -0.4 | -24 | 7.3 | · | -13 | · | -10 | 0.5
S=c1[nH]nc(C2CCCCC2)n1Cc1ccccc1 | 0.8 | 9 | -0.5 | -5.9 | -3 | · | -8 | -4.5
COc1ccc(C(C)=O)cc1CC(=O)N(Cc1ccccc1)c1ccccc1 | -0.5 | -3 | -2.7 | 0.8 | 6 | -2% | · | -5.8
Cc1nc2sc(C(c3cccc(F)c3)N3CC(C)OC(C)C3)c(O)n2n1 (stereo not drawn) | -0.6 | -3 | 2.4 | · | -17 | -1% | -7 | 0.6
O=C(NC1CCCN(Cc2ccc(Cl)cc2)C1)C1CCC1 (stereo not drawn) | 1.1 | -4 | ? | -2.4 | 33 | 4% | 0 | -0.6
COc1ccc(/C=N/NS(=O)(=O)c2ccc(F)cc2)cc1CN1CCSCC1 | -0.1 | -9 | -0.8 | 2.2 | -12 | -1% | · | -14
